Mtb hypoxia rep: Mtb hypoxia fluorescent reporter inhibition; fluorescence inhibition, % (concentration not given with the values); 300,000 compounds, 0.1% hits; M. tuberculosis hypoxia-regulated fluorescent reporter, fluorescence; AID 1159583;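 active = 35 to 45% if threefold the growth effect, above 45% if 1.5-fold the growth effect; inactive = the rest, general growth blockers included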;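 note: wells of about 50 µL received 100 nL stock; 0% = vehicle wells and 100% = reference inhibitor wells; whole bacteria with a GFP reporter of the hypoxia response; strong numbers were not always called active; many hits fall short of the cut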
RN4220 kill: kills Staphylococcus aureus RN4220 | AID 1259311 | inhibition, % (no concentration beside the values) | 330,000 compounds, 0.33% hits | S. aureus RN4220 growth, OD600, 16 h;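 active = z-score of -3 or lower and OD600 up to 0.18 on both plates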;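 note: plate controls were untreated cells for no effect and reference antibiotic for full effect; stock transfer was 100 nL into about 80 µL; one replicate is shown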
BJeLR lethal: BJeLR cell viability loss; 300,000 compounds, 0.17% hits; inhibition, % (no concentration beside the values); BJeLR (HRASV12) viability, CellTiter-Glo ATP luminescence, 48 h; reference of the scale not given here;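 active = replicate mean above 50%; inconclusive = above 50% but judged a plate artefact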;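 note: 50 nL library stock added to about 25 µL; numbers are from one replicate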
Bead autofluor: compound fluorescence in toxin protease inhibitor counterscreen; compound autofluorescence counterscreen, microsphere flow cytometry; hits give high values; fluorescence intensity (test concentration not listed); 360,000 compounds, 3.1% hits; AID 624483;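 active = at least 3 SD above the mean of all compounds, about 16000 in these data; inconclusive = too few beads counted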;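 note: 100 nL of 1 mM stock went into each well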
PrP UTR inh: suppresses PrP 5' UTR mRNA reporter expression; 340,000 compounds, 0.35% hits; inhibition, % (concentration not given with the values); cell-based PrP 5' UTR mRNA reporter, plate reader;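 active = every replicate at 50% or more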;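 note: 0 = median of the neutral control wells; tested in H4 reporter cells; numbers are from one replicate; inactives centre near -14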
Sa ugtP lethal: compounds lethal to S. aureus RN4220 ugtP deletion mutant | OD600 growth, 16 h; some inactives read as strong as hits | growth inhibition, % (test concentration not listed) | 330,000 compounds, 0.54% hits;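 active = z-score under -3 and OD600 up to 0.15 on both plates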;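 note: plate controls were untreated wells for no effect and antibiotic for full effect; wells of about 80 µL received 100 nL stock; the first replicate is given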
Mtb hypoxia rep growth: second read-out of Mtb hypoxia rep, no call of its own (marks repeat the call); growth inhibition, %; measured here: M. tuberculosis growth (absorbance);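 0% = vehicle and 100% = reference antibiotic; read after six days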
* hit, by the source's call; ? = inconclusive; / = no result given; & = joins results of further samples.

SMILES | Mtb hypoxia rep | Mtb hypoxia rep growth | RN4220 kill | BJeLR lethal | Bead autofluor | PrP UTR inh | Sa ugtP lethal
CC(C)(C)c1cc(NC(=O)C2CCCO2)no1 (stereo unspecified) | 3 | 3 | 1.6 | 3 | 9948 | -26 | 1
COc1cccc(NC(=O)C2CCN(Cc3cnn(-c4ccccc4)c3-n3cccc3)CC2)c1 | 12 | 16 | 4.5 | 5 | 10428 | -21 | 5
Fc1ccc(-c2n[nH]c(=S)n2-c2ccc3c(c2)OCCO3)cc1 | -5 | 6 | 1.8 | -8 | 4214 | -15 | 8
CCOP(=O)(c1ccccc1)C(O)c1ccc(F)cc1 (stereo unspecified) | -12 | 2 | -0.2 | -12 | 2206 | 2 | 0
O=C1C2C3C=CC(C3)C2C(=O)N1Nc1c(Cl)cc(Cl)cc1Cl (stereo unspecified) | 6 | 9 | 2.8 | -9 | 2576 | -12 | -6
COc1ccc(Cl)cc1N1C(=O)[C@@H]2C(c3cccc(OC)c3OC)=NO[C@@H]2C1=O | 7 | -1 | -0.9 | 0 | 3823 | -18 | -2
C=C(C)c1cccc(C(C)(C)NC(=O)NC(c2ccccc2)c2ccc(OC)cc2)c1 (stereo unspecified) | 5 | 5 | 2.7 | -3 | 1863 | -9 | 14
COc1ccc(CNC(=O)c2cc3c(=O)n4ccccc4nc3n(Cc3cccnc3)c2=N)cc1 | -9 | -13 | 2.3 | 2 | 8731 | -3&5 | 4
CC1=CC=CC2=NC(=O)CC(C)(C(=O)N(CC(=O)NC3CCCC3)Cc3ccc(Cl)cc3)N12 (stereo unspecified) | -9 | 0 | -0.7 | -7 | 3203 | -22 | 3
Oc1ccccc1CNc1nccs1 | 16 | 12 | 7.3 | 1 | 3488 | -16 | 13

Laid out differently: 10 of the compounds above.
Values run as follows: Mtb hypoxia rep | Mtb hypoxia rep growth | RN4220 kill | BJeLR lethal | Bead autofluor | PrP UTR inh | Sa ugtP lethal
- CC(C)(C)c1cc(NC(=O)C2CCCO2)no1 (stereo unspecified)
 : 3 | 3 | 1.6 | 3 | 9948 | -26 | 1
- COc1cccc(NC(=O)C2CCN(Cc3cnn(-c4ccccc4)c3-n3cccc3)CC2)c1
 : 12 | 16 | 4.5 | 5 | 10428 | -21 | 5
- Fc1ccc(-c2n[nH]c(=S)n2-c2ccc3c(c2)OCCO3)cc1
 : -5 | 6 | 1.8 | -8 | 4214 | -15 | 8
- CCOP(=O)(c1ccccc1)C(O)c1ccc(F)cc1 (stereo unspecified)
 : -12 | 2 | -0.2 | -12 | 2206 | 2 | 0
- O=C1C2C3C=CC(C3)C2C(=O)N1Nc1c(Cl)cc(Cl)cc1Cl (stereo unspecified)
 : 6 | 9 | 2.8 | -9 | 2576 | -12 | -6
- COc1ccc(Cl)cc1N1C(=O)[C@@H]2C(c3cccc(OC)c3OC)=NO[C@@H]2C1=O
 : 7 | -1 | -0.9 | 0 | 3823 | -18 | -2
- C=C(C)c1cccc(C(C)(C)NC(=O)NC(c2ccccc2)c2ccc(OC)cc2)c1 (stereo unspecified)
 : 5 | 5 | 2.7 | -3 | 1863 | -9 | 14
- COc1ccc(CNC(=O)c2cc3c(=O)n4ccccc4nc3n(Cc3cccnc3)c2=N)cc1
 : -9 | -13 | 2.3 | 2 | 8731 | -3&5 | 4
- CC1=CC=CC2=NC(=O)CC(C)(C(=O)N(CC(=O)NC3CCCC3)Cc3ccc(Cl)cc3)N12 (stereo unspecified)
 : -9 | 0 | -0.7 | -7 | 3203 | -22 | 3
- Oc1ccccc1CNc1nccs1
 : 16 | 12 | 7.3 | 1 | 3488 | -16 | 13

Additional records follow.
SMILES | Mtb hypoxia rep | Mtb hypoxia rep growth | RN4220 kill | BJeLR lethal | Bead autofluor | PrP UTR inh | Sa ugtP lethal
Cc1cc(C)cc(CSc2ccc(S(=O)(=O)N3CCCC3)cn2)c1 | 7 | 3 | 0.7 | / | ? | -9 | 15
Cc1ccc(C(=O)c2c(C)oc3c2C(=O)C(=O)c2ccccc2-3)cc1 | / | / | 109* | -5 | 2292 | -47 | 93*
O=C(COC(=O)C1CCN(S(=O)(=O)c2cccs2)CC1)NCc1ccc(F)cc1 | 2 | -3 | 0.7 | -8 | 2344 | -13 | 2
CCOC1OC(C(=O)NCc2nc3ccccc3[nH]2)=CC(c2ccc(Br)cc2)C1CCCO (stereo unspecified) | 18 | 9 | 1.0 | / | / | / | 6
O=C1CCN(S(=O)(=O)c2ccccc2)C2CCCCC12 (stereo unspecified) | -3 | -1 | 5.2 | 5 | 4462 | -8 | -2
CCOC(=O)Nc1c(Cl)[nH]c(=O)n(C)c1=O | 9 | 4 | 5.3 | / | 3948 | -18 | 6
COC(=O)CC1C(=O)NCCN1C(=S)Nc1ccccc1 (stereo unspecified) | 10 | -1 | 3.5 | -20 | 7851 | -16 | -2
O=C(O)CC(=O)NC12CC3CC(CC(C3)C1)C2 | 12&14 | 7&5 | 3.4&4.0 | -8&-1 | 2353&7053 | 1&-27 | 14&-9
Cc1c(Cl)cccc1NC(=O)C1CCN(S(C)(=O)=O)CC1 | 0 | 16 | 2.1 | 5 | 4075 | -12 | 9
COc1ccc(OCc2ccc(C(=O)O)cc2)cc1 | -2 | 16 | 0.9 | 5 | 3873 | -54 | 4
COc1ccc(NS(=O)(=O)c2cccc(C(=O)NCC3(N4CCOCC4)CCCCC3)c2)cc1 | 3 | -2 | 2.7 | 9 | 5866 | -9 | 12
CCC(CC)C(=O)Nc1ccccc1-n1cccc1 | 5 | 9 | 1.3 | -4 | 3200 | -3 | 0
Cc1ccc(C)c(NC(=S)N(C)CCO)c1 | 1 | 15 | 3.5 | 9 | 4354 | -21 | 5
COCCNc1cc(N)c([N+](=O)[O-])cc1[N+](=O)[O-] | -10 | -4 | 13 | 3 | 2080 | -16 | 9
CCn1c2ccccc2c2cc(NC(=O)c3cccc([N+](=O)[O-])c3C)ccc21 | 12 | 10 | 18 | -1 | 2486 | -13 | 0
C1CCC(Nc2nc3nonc3nc2N2CCSCC2)C1 | -4 | -8 | 2.0 | -6 | 2055 | -3 | -1
COc1ccccc1N1CCN(C(=O)CN(C)S(=O)(=O)c2ccc3c(c2)c(=O)n(C)c(=O)n3C)CC1 | 2 | -1 | 3.2 | 4 | 4523 | -12 | 7
CCOc1ccc(-c2nnn(CC(=O)NCc3ccc(C)cc3)n2)cc1 | 11 | 4 | 2.1 | 5 | 3576 | -19 | 10
CCCCCCOc1ccc(C(C)=NNC2=NCCN2)cc1 | 22 | 23 | 35 | / | / | / | 33
O=C(Cn1cc2c(n1)CCCCC2)NCc1ccccn1 | / | / | 5.6 | -7 | 5672 | -22 | 1
CC(OC(=O)COc1cccc2c1OC(C)(C)C2)C(=O)Nc1ccc(S(N)(=O)=O)cc1 (stereo unspecified) | / | / | / | 10 | 4575 | -6 | /
COc1nc(N/N=C/c2ccc(C)cc2)nc(N2CCCCC2)n1 | / | / | / | -6 | 2214 | -24 | /
Cc1ccc(/C=C/C(=O)Nc2cccnc2)o1 | -2 | 0 | 9.4 | 6 | 1948 | -15 | -6
Cc1sc(-c2ccncc2)nc1OC(=O)c1ccc(F)cc1F | 6 | 5 | 3.7 | -3 | 4988 | -28 | 4
CCCN(CC(=O)Nc1ccccc1C)C(=O)COc1c(C)cccc1C | -4 | 7 | 5.5 | / | 3767 | -30 | 7
S=c1[nH]nc(COc2ccccc2)n1/N=C/C=C/c1ccccc1 | / | / | / | 9 | 2071 | -23 | /
CCOc1ccccc1NCc1cc(=O)oc2cc(C)ccc12 | 8 | 0 | 1.1 | -12 | 5741 | 0 | -1
CNc1nc(NCCOC23CC4CC(CC(C4)C2)C3)nc(OCC(F)(F)F)n1 | 19 | 7 | -10 | -4 | 3210 | -12 | -1
Cc1ccc(NC(=O)CC(=O)c2ccc([N+](=O)[O-])cc2)cc1S(=O)(=O)Nc1cccc(Cl)c1 | -1 | 5 | 4.4 | -7 | 1988 | -10 | -33
CCOC(=O)c1cccc(NC(=O)/C=C/c2cccc([N+](=O)[O-])c2)c1 | 6 | 5 | 0.6 | 13 | 19203* | -20 | -14
CC12CN3CCN(CC(C3)C1=NNC(=O)Nc1ccccc1)C2 | -2 | 0 | -2.4 | / | / | / | -2
CC(=O)Nc1ccc2c(c1)ncn2-c1ccccc1 | -1 | 11 | 2.0 | -6 | 4327 | -96 | 5
CC1(c2cccc(Br)c2)NC(=O)N(CC(=O)NC2CCCCC2)C1=O (stereo unspecified) | -3 | 11 | -1.9 | / | 8829 | 7 | 0
CC(=O)Nc1ccc(S(=O)(=O)NC2(C(F)(F)F)NC(=O)N(c3ccccc3F)C2=O)cc1 (stereo unspecified) | 9 | -3 | 6.8 | -1 | 2271 | -29 | 1
CCCCCn1c(=O)[nH]c2cc(C(=O)NCCN(CC)CC)ccc2c1=O | 7 | 11 | 1.6 | 5 | 4214 | -1 | 4
Cc1cccc(NC(=O)CSc2nc3ccccc3c(=O)n2C)c1 | 0 | 2 | 3.1 | -5 | 3135 | -3 | -1
CCCCn1c(O)c(/C=C/C=C/C=Nc2ccccc2)sc1=S | 10 | 0 | -6.7 | 39 | 4749 | -16 | -3
CCOc1ccc(S(=O)(=O)NCCOC)cc1C | 11 | 20 | 6.9 | -4 | 9836 | -36 | 3
O=C(COc1ccccc1)Nc1ccc(Cl)cc1C(=O)c1ccccc1 | 12 | 4 | 3.9 | -12 | 2042 | -10 | 13
COc1ccc(-c2nc(-c3cccs3)no2)cc1 | 10 | 1 | 7.2 | 4 | 4280 | 40 | 2
CC(C)Oc1ccccc1C=NNC(=O)C1CC1 | 8 | 10 | 4.0 | / | / | / | 2
CCCCCC(=O)Nc1cccc(C2=NOC3(C2)CC(C(N)=O)N(C(=O)c2ccc(Cl)cc2)C3)c1 (stereo unspecified) | 7 | 9 | 5.8 | / | / | / | 12
COc1cc2[nH]c(=O)c(C(=O)NCCCN3CCOCC3)c(O)c2cc1OC | / | / | / | 3 | 3363 | -17 | /
Cc1nc2ccccc2n1/C(=N\S(=O)(=O)c1ccccc1)c1ccccc1 | / | / | / | 0 | 2156 | -17 | /
O=[N+]([O-])c1ccc(/C=N/N2CCN(c3ccncc3S(=O)(=O)N3CCCCC3)CC2)cc1 | / | / | / | -6 | 2517 | -6 | /
Cc1cccc(C(=O)N2CCC(n3nnc4cc(F)ccc43)CC2)c1 | 9 | 4 | 4.0 | -2 | 4064 | -4 | -2
O=C(NCc1cccs1)c1cc(-c2ccccc2)nn1CC1CC(c2cccc([N+](=O)[O-])c2)=NO1 (stereo unspecified) | -2 | 2 | 2.1 | -8 | 4184 | -24 | 4
CC1CC(C)CN(C(=O)COC(=O)CCC(=O)c2cccs2)C1 (stereo unspecified) | -1 | -12 | 5.3 | / | 2887 | -6 | 5
O=C(C1CCN(S(=O)(=O)c2cccc3cccnc23)CC1)N1CCCC1 | / | / | 2.4 | -3 | 4019 | -6 | 9
CC(=O)c1ccccc1OCc1ccc(S(=O)(=O)Cc2ccccc2)cc1 | -2 | 10 | 15 | -2 | 3630 | -10 | 4
The results go on:
SMILES | Mtb hypoxia rep | Mtb hypoxia rep growth | RN4220 kill | BJeLR lethal | Bead autofluor | PrP UTR inh | Sa ugtP lethal
COc1ccc(C(=O)NCC(c2ccco2)N(C)C)cc1S(=O)(=O)NCc1ccc(Cl)cc1 (stereo unspecified) | 0 | 1 | 3.9 | / | ? | -3 | 5
COc1ccc(C(=O)C(CCC(CNC(C)(C)C)C(=O)c2ccc(OC)cc2)CNC(C)(C)C)cc1 (stereo unspecified) | 13 | 8 | 5.1 | 10 | 2287 | 9 | -5
Cc1ccc(NC(=O)COC(=O)c2cccnc2Cl)cc1S(=O)(=O)N1CCCCC1 | -8 | -9 | -0.2 | 39 | 3979 | -16 | 3
CCn1c(SCC(=O)NC2CCCCC2)nnc1-c1ccco1 | 6 | 9 | 2.2 | 1 | 3954 | -14 | 9
COc1ccc(-c2ccnc3nc(N=CN(C)C)nn23)cc1 | 1 | 1 | 5.6 | / | / | / | 10
Cc1c(C(=O)OCC(=O)N(CCC#N)c2ccccc2)oc2c1ccc1ccccc12 | 2 | 3 | -0.1 | -5 | 4060 | -6 | -10
CCOC(=O)/C=C1\SCC(=O)N1CC(=O)c1ccc[nH]1 | 1 | 0 | 6.9 | 5 | 21362* | -25 | -11
